VDR inh = vitamin D3 receptor (human) inhibition; AID 504847; P11473; actives 0.93% (n = 400,000); Potency, µM, for inactives: max response, negative = inhibition, actives largely listed as inhibitors; VDR-SRC2-3 peptide fluorescence polarization, 2 h; active = well fitted inhibition curve with a large enough effect; inconclusive = small, poorly fitted or top-dose-only effect, or another doubt; inactive = no such curve, though single readings can be large or run the other way; note: series mostly up to about 120 µM
Target sequence (P11473 whole entry, looked up): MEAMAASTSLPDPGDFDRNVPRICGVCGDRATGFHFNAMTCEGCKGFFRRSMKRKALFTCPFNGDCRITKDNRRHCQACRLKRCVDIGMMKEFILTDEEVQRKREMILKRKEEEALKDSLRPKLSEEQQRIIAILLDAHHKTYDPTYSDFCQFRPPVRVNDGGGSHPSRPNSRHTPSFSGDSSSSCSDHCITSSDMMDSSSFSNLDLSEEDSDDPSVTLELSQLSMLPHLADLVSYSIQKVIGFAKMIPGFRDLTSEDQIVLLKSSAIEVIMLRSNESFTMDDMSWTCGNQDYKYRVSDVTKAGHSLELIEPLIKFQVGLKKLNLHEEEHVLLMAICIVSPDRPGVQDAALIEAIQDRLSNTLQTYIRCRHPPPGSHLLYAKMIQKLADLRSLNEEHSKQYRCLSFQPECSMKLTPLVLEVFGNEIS
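VDR–SRC2-3 interaction, FP format. Cmpds 23 nl via pintool, brief spin, 2 h ambient incubation.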
Active calls of the source: *; ? = inconclusive. % is set by controls: 0 for no effect and ±100 for the full control effect; potency is the fitted concentration of half-maximal effect. Some of the compounds tested (hit frequency here may not be typical).

Cc1cc(C)c2cc(C)c3nnc(SCC(=O)NCc4ccc5c(c4)OCO5)n3c2c1
  VDR inh: -9%
Cc1cc(C(=O)NNC(=S)NCc2ccco2)n(C)n1
  VDR inh: ?
O=c1c(-c2ccccc2)n[nH]c2ccccc12
  VDR inh: 3%
CC(CN1CCCC1)OC(=O)C(c1ccccc1)c1ccccc1 (centres undefined)
  VDR inh: 13%
CCn1c(Cc2ccccc2)nnc1SCc1nc2ccccc2c(=O)[nH]1
  VDR inh: 7%
CCOC(=O)C1CCN(C(=O)c2cc(C)n(C(C)(C)C)n2)CC1
  VDR inh: 18%
Cc1c(Cl)cccc1N1C(=O)CC(NNC(=O)c2ccc3c(c2)OCO3)C1=O (centres undefined)
  VDR inh: -8%
COCCN(C(=O)COC(=O)CCS(=O)(=O)c1ccccc1)c1c(N)n(Cc2ccccc2)c(=O)[nH]c1=O
  VDR inh: 8%
CCOC(=O)c1c(C)c(C(=O)Nc2ccc3c(c2)OCCO3)c(C)n1C
  VDR inh: -7%
O=C(c1csnn1)N1CCC2(CCCN(C(c3ccccc3)c3ccccc3)C2)CC1
  VDR inh: ?

O=C(O)COc1ccc(/C=N/NC(=O)C(O)(c2ccccc2)c2ccccc2)cc1
  VDR inh: -14%
COc1cc(/C=N/NC(=O)c2sc(N)c(C#N)c2C)ccc1O
  VDR inh: 11%
O=C(COc1coc(CN2CCc3ccccc3C2)cc1=O)Nc1cccc(F)c1
  VDR inh: -10%
CC(=O)c1ccc(S(=O)(=O)NCC2(N3CCOCC3)CCCCC2)cc1
  VDR inh: 8%
CCOC(=O)c1sc(NC(=O)C2c3ccccc3Oc3ccccc32)c(C#N)c1C
  VDR inh: 79µM*
CCc1cccc(NC(=O)C2CCC(CNS(=O)(=O)c3csc(C(N)=O)c3)CC2)c1 (centres undefined)
  VDR inh: 12%
Nc1nc(-c2ccccc2)cc(-c2ccccc2O)n1
  VDR inh: -7%
COc1ccc(CC2(C)OC(c3ccc([N+](=O)[O-])cc3)=NN2C(C)=O)cc1 (centres undefined)
  VDR inh: 4%
COc1ccc(C)cc1NC(=O)NCc1ccccn1
  VDR inh: -5%
O=C(CCc1nnc(Cc2c[nH]c3ccccc23)o1)NCC1CC12CCCCC2 (centres undefined)
  VDR inh: -19%

CC1OC2(C)OC(=N)C1(C#N)C(C#N)(C#N)C2c1ccccc1 (centres undefined)
  VDR inh: -6%
COc1cc(C)nc(NC(=O)COc2ccc(Cl)cc2C)n1
  VDR inh: -12%
Nc1c(-c2ccccc2Cl)cnn1-c1cccc([N+](=O)[O-])c1
  VDR inh: 14%
CCOC(=O)c1ccc2nc(C)cc(Nc3ccc(OC(C)C)cc3)c2c1
  VDR inh: -8%
CSc1ccccc1C(=O)OCC(=O)NC1CCS(=O)(=O)C1 (centres undefined)
  VDR inh: 6%
CCOC(=O)c1nc(Nc2ccc(C)cc2)c2ccccc2n1
  VDR inh: -2%
COc1ccc(NC(=O)C2=C(C)Nc3c(C(=O)Nc4ccc(C)cc4)cnn3C2c2cc(OC)ccc2OC)cc1 (centres undefined)
  VDR inh: 5%
COc1ccc2c3c([nH]c2c1)C1CC2C(CC(O)C(OC)C2CO)CN1CC3 (centres undefined)
  VDR inh: -9%
CC(C)=CC(=O)OCC(=O)NC(=O)NC(C)(C)C
  VDR inh: 5%
CCN(C(=O)CSc1nnc(-c2ccc(F)cc2)c2ccccc12)C1CCS(=O)(=O)C1 (centres undefined)
  VDR inh: 1%

COc1ccccc1C1SCCN1S(C)(=O)=O (centres undefined)
  VDR inh: 10%
CCOc1ccc(N2C(=O)CC(Sc3nc4ccc(OCC)cc4s3)C2=O)cc1 (centres undefined)
  VDR inh: 7%
CCOC(=O)C1=C(COC(=O)c2ccccc2OC)NC(=O)NC1C (centres undefined)
  VDR inh: 4%
O=C(Nc1ccccc1O)/C(=C\c1ccccc1)NC(=O)c1ccccc1
  VDR inh: 0%
O=C(NCc1ccc(Cl)cc1Cl)c1cccc(N2CCCS2(=O)=O)c1
  VDR inh: -3%
COCCC(=O)Nc1ccc2c(c1)CN(C(=O)CCOC)CC2
  VDR inh: -19%
Cc1cccc(C)c1NC(=O)CSc1nnc(NC(=O)C2CC2)s1
  VDR inh: 10%
CCOC(=O)c1ccc(NC(=O)CCNC(=O)c2ccc([N+](=O)[O-])cc2)cc1
  VDR inh: 11%
CC(=O)Oc1ccc2nc(-c3ccc(Br)o3)oc(=O)c2c1
  VDR inh: 9%
CCOC(=O)c1sc(N)c(C(=O)OCC)c1C
  VDR inh: 1%

C#CCOCCOCCOCCNc1nc(N2CCN(C(=O)C([C@@H](C)CC)n3cc(C(N)COC(=O)C(F)(F)F)nn3)CC2)nc(N2CCN(C(=O)[C@H](Cc3cc4ccccc4[nH]3)n3cc(C(N)CO)nn3)CC2)n1 (some centres undefined)
  VDR inh: 1%
CCCCNc1cc(C)nc(NCc2ccccc2)n1
  VDR inh: -3%
COc1cc2ccc(=O)oc2c(CC=C(C)C)c1OC
  VDR inh: -11%
CCOCCCNC(=O)C1CCN(C(=O)c2cc3sccc3n2C)CC1
  VDR inh: 1%
CC(C)OCCCNC(=O)CN1C(=O)c2cccc3cccc1c23
  VDR inh: 19%
CC(C)CC(=O)Nc1ccc(C(=O)NNC(=S)NC(=O)C2CCCCC2)cc1
  VDR inh: -8%
Cc1ccc(CN2CCNC(=O)C2CC(=O)NC2CCCCCC2)o1 (centres undefined)
  VDR inh: -9%
COc1ccc2[nH]c(C)c(CCNS(=O)(=O)c3cc(F)ccc3OC)c2c1
  VDR inh: -8%
O=C(CCC1CCCN(C(=O)COc2ccccc2)C1)N1CCN(c2ccccn2)CC1 (centres undefined)
  VDR inh: 4%
Cc1ccc(S(=O)(=O)NC2(C(=O)O)CCCC2)cc1
  VDR inh: -10%

Cc1cc(C)n2nc(C(=O)OCC(=O)N3CCC3)nc2n1
  VDR inh: -10%
CN(C)c1ccc(NC(=S)NCC2CCCO2)cc1 (centres undefined)
  VDR inh: ?
COc1ccc(CCNC(=O)CSc2nncs2)cc1
  VDR inh: -18%
COc1cc(/C=N/NC(=O)c2sc3ccccc3c2Cl)ccc1OC(=O)c1ccc([N+](=O)[O-])cc1
  VDR inh: -11%
COC(=O)c1c(Cc2ccccc2Cl)c[nH]c1C
  VDR inh: -3%
COc1cc(CC(=O)N2CCc3ccccc32)cc(OC)c1OC
  VDR inh: 3%
C/C(CC(=O)NC1C2CC3CC(C2)CC1C3)=N\NC(=O)Cc1cccs1 (centres undefined)
  VDR inh: 10%
O=C(NNC(=O)C1CC(c2cccnc2)=NO1)Nc1cccc(F)c1 (centres undefined)
  VDR inh: -10%
Cc1cccc(-n2cnc3c(c2=O)c2nc4ccccc4nc2n3Cc2ccco2)c1
  VDR inh: 4%
COc1ccc(CNC(=O)CN(C(=O)c2csnn2)c2ccc(C(C)=O)cc2)cc1
  VDR inh: -14%

O=C(N/N=C/c1ccc(F)cc1)c1ccccc1
  VDR inh: -4%
O=C(NCc1cccnc1)c1nn(-c2ccccc2F)nc1CO
  VDR inh: -2%
O=C1CCCc2c1cc(-c1ccccc1)n2-c1ccccc1
  VDR inh: -12%
CCOC(=O)CNC(=O)O[C@@H]1C(=O)c2cc(OC)ccc2O[C@H]1c1cccc(OC)c1
  VDR inh: 5%
C[C@@]12CCC3[C@@](CCC4[C@@]3(C)CCC[C@@]4(C)C(=O)N3CCOCC3)(CC1=O)C2 (some centres undefined)
  VDR inh: -18%
CCOc1ccccc1N(CC(=O)Nc1ccc(S(=O)(=O)N2CCCC2)cc1)S(C)(=O)=O
  VDR inh: -10%
COc1ccc(N2CCN(C(=O)C3CCCN(S(=O)(=O)c4ccc(C)cc4)C3)CC2)cc1 (centres undefined)
  VDR inh: -14%
O=C(CCc1nnc(CCCCc2ccccc2)o1)NCCN1CCCCC1=O
  VDR inh: -18%
CCCCN=C1SC(C(=O)Nc2sc3c(c2C(=O)OC)CCC3)C(N)=C1C(=O)N1CCOCC1 (centres undefined)
  VDR inh: 11%
NC(=O)C(c1ccc(Br)cc1)c1ccc(C(=O)c2ccccc2)cc1 (centres undefined)
  VDR inh: -12%

CCC1Sc2ccc(S(=O)(=O)CCC(=O)Nc3cc(C)ccn3)cc2NC1=O (centres undefined)
  VDR inh: 0%
O=C1CC2(CCCCCC2)Oc2ccc(Cl)cc21
  VDR inh: -3%
CC1=Nn2c(nnc2-c2n[nH]c3c2CCC3)SC1
  VDR inh: 14%
COc1ccc(CCNC(=O)c2ccc(N3CCCCS3(=O)=O)cc2)cc1OC
  VDR inh: 29%
CC(C)N(C(C)C)S(=O)(=O)c1ccc(NN)nc1
  VDR inh: -23%
O=C1COc2ccc(C(=O)COC(=O)CCSc3ccc(Cl)cc3)cc2N1
  VDR inh: -3%
Cc1cccc(C)c1NC(=S)NC(C)CCc1ccccc1 (centres undefined)
  VDR inh: -2%
CCOC(=O)C1CCN(c2c(NCCCN3CCN(Cc4ccccc4)CC3)c(=O)c2=O)CC1
  VDR inh: -2%
COc1cc(CC(NC(C)=O)C(=O)NC2CCN(c3nc(OC)nc(OC)n3)CC2)cc(OC)c1 (centres undefined)
  VDR inh: 10%
Cc1ccc2c(c1)C(N1CCN(C)CC1)=Nc1cccnc1N2
  VDR inh: 1%

C=CCc1ccccc1OCC(O)CN1CCN(c2ccc(OC)cc2)CC1 (centres undefined)
  VDR inh: 1%
O=C(NCc1ccc2c(c1)OCO2)C1CCC(CNS(=O)(=O)c2cccc3nsnc23)CC1 (centres undefined)
  VDR inh: -18%
COc1ccc(S(=O)(=O)Nc2ccccc2C(F)(F)F)cc1
  VDR inh: 3%
COc1cc(Nc2ccc(S(=O)(=O)N3CCN(C)CC3)cc2[N+](=O)[O-])cc(OC)c1
  VDR inh: 6%
Cc1ccc(C)c(N2CCN(C(=O)CN3C(=O)COc4ccc(S(=O)(=O)N5CCOCC5)cc43)CC2)c1
  VDR inh: 4%
CCOC(=O)c1ccc(NC(=O)c2nc[nH]c2C(=O)N[C@@H](CCCCNC(=O)OC(C)(C)C)C(=O)OC(C)(C)C)cc1
  VDR inh: -19%
CN(C)CCCN(C(=O)c1ccc2c(c1)CCCC2)c1nc2ccc(Cl)cc2s1
  VDR inh: -8%
O=[N+]([O-])c1cccc(COc2ccccc2CN2CCCCC2)c1
  VDR inh: 15%
COc1cccc(-c2cc(C(F)(F)F)n3nc(C(=O)Nc4c(C)n(C)n(-c5ccccc5)c4=O)cc3n2)c1
  VDR inh: -7%
COc1cc(NC(=O)CCCn2c(=O)oc3ccccc32)cc(OC)c1
  VDR inh: 13%

Cc1nn(Cc2ccccc2)c(C)c1CNC(=O)[C@H](C)N=C1NS(=O)(=O)c2ccccc21
  VDR inh: 17%
CCOC(=O)C1=C(C)N(C)C(=S)NC1c1c(OCC)ccc2ccccc12 (centres undefined)
  VDR inh: -12%
Cc1ccccc1N1CC(C(=O)Nc2nnc(SCc3ccccn3)s2)CC1=O (centres undefined)
  VDR inh: 9%
COc1ccccc1CNC(=O)Cn1nc(C(F)(F)F)cc1C
  VDR inh: 14%
N#CCCN(C(=O)Nc1ccc(Cl)cc1)c1ccccc1
  VDR inh: -4%
COc1ccc(NC(=O)c2cc3n(n2)C(C(F)(F)F)CC(c2ccco2)N3)cc1 (centres undefined)
  VDR inh: -1%
COCCn1c(=O)c(-c2ccc(Cl)cc2)nc2cnc(N(C)C)nc21
  VDR inh: -11%
CC(=O)Nc1ccc(S(=O)(=O)Nc2ccc(Cc3ccncc3)cc2)cc1
  VDR inh: -4%
Cc1ccc(C(=O)Nc2cccc(C(F)(F)F)c2)cc1Nc1cnccn1
  VDR inh: 6%
O=C(c1ccco1)N1CCN(C(c2ccc(F)cc2)c2nnnn2Cc2cccs2)CC1 (centres undefined)
  VDR inh: -15%

Cc1c(C(=O)NCc2ccccc2Cl)sc2nc3n(c(=O)c12)CCCCC3
  VDR inh: 2%
CCC(CC)COC(=O)C1=C(C)NC(=O)NC1c1ccc(N(C)C)cc1 (centres undefined)
  VDR inh: -12%
Cc1ccc(C(=O)N2CCC(N3CCC(C(=O)N4CCOCC4)CC3)CC2)cc1C
  VDR inh: -10%
CC(=O)c1cccc(OCC(O)CNCC2COc3ccccc3O2)c1 (centres undefined)
  VDR inh: -3%
COC(=NC(C)C)NC(C)C
  VDR inh: 5%
O=C(Nc1cccc(Cl)c1)C(Cc1ccccc1)n1cccc1 (centres undefined)
  VDR inh: 10%
COc1cc2c(cc1NC(=O)CSc1ccc(C)cc1)oc1ccccc12
  VDR inh: 27%
Cc1ccc(N(NC(=O)C(O)(c2ccccc2)c2ccccc2)C(=O)CCl)cc1
  VDR inh: ?
COc1ccccc1OCCCN1C(=O)C(=O)c2cccc(C)c21
  VDR inh: -28%
COc1ccc(CCNC(=O)C(=O)NCC2OCCN2S(=O)(=O)c2ccc(Cl)cc2)cc1 (centres undefined)
  VDR inh: -3%

Ordered by value in VDR inh (rising): some entries from above.
COc1ccccc1OCCCN1C(=O)C(=O)c2cccc(C)c21
  VDR inh: -28%
CCC(CC)COC(=O)C1=C(C)NC(=O)NC1c1ccc(N(C)C)cc1 (centres undefined)
  VDR inh: -12%
COc1ccc(CCNC(=O)C(=O)NCC2OCCN2S(=O)(=O)c2ccc(Cl)cc2)cc1 (centres undefined)
  VDR inh: -3%
Cc1c(C(=O)NCc2ccccc2Cl)sc2nc3n(c(=O)c12)CCCCC3
  VDR inh: 2%
COC(=NC(C)C)NC(C)C
  VDR inh: 5%
O=C(Nc1cccc(Cl)c1)C(Cc1ccccc1)n1cccc1 (centres undefined)
  VDR inh: 10%
COc1cc2c(cc1NC(=O)CSc1ccc(C)cc1)oc1ccccc12
  VDR inh: 27%

(next part)
CCCCNC(=O)c1ccc2c(c1)ncn2C1CCCC1
  VDR inh: 7%
COc1ccccc1CNC(=O)C1CCN(S(=O)(=O)c2cccc([N+](=O)[O-])c2)CC1
  VDR inh: 3%
CN1CCN(C(=O)/C=C\c2ccc(Cl)cc2)CC1
  VDR inh: 1%
O=C(CSc1ncnc2nc[nH]c12)Nc1ccc(Br)cc1Cl
  VDR inh: 2%
COc1ccc(CCNc2nc(C)cc(C)n2)cc1OC
  VDR inh: -11%
CCC(C)NC(=O)c1oc2ccc(S(=O)(=O)N3CCC4(CC3)OCCO4)cc2c1C (centres undefined)
  VDR inh: -9%

Compound activity: PubChem BioAssay, National Center for Advancing Translational Sciences (NCATS)
